AmpC nodet inh – inhibitors of E. coli AmpC beta-lactamase without detergent; AmpC nitrocefin hydrolysis, absorbance 480 nm, no detergent; potencies from a single point are estimates; actives 1.8% (n = 71,000); P00811; AID 585; Potency, µM (highest dose often 28.7 µM), inactives show at the top dose activity change, negative = inhibition; active = falling curve, for most hits resting on a single point; inconclusive = weak or doubtful change; inactive = flat or rising curve; also: % of control where 0% means no effect; about half of the hits show no inhibition at the top dose; a quarter of the inactives give rising signals
Target sequence (P00811 whole entry, looked up): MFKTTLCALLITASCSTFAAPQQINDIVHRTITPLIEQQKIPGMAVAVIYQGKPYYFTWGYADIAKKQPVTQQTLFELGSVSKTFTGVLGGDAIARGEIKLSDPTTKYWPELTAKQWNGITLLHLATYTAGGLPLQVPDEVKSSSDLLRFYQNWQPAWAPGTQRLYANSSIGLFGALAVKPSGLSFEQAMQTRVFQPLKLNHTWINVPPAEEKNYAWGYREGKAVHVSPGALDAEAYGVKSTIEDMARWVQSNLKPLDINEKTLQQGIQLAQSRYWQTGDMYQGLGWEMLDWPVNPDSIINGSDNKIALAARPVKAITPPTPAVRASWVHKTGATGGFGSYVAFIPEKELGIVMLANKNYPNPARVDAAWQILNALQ
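AmpC, 20 mM phosphate pH 7.0; 15 min cpd preinc, RT; start with nitrocefin (800 uM stock); A480 kinetic read, 20 s intervals, 4 min. No-enzyme wells = negative control.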
* = called active by the depositor; ? = inconclusive; [ ] = another dose, or the depositor's remark. Potency is read from the fitted curve at half-maximal effect.

structure,AmpC nodet inh
CCOc1cc(S(=O)(=O)n2c(C)nc3ccccc32)ccc1F,49%
O=c1c(CCc2ccccc2)nc2cnc(N3CCNCC3)nc2n1CCc1ccccc1,79%
CCNC(=O)N1C(CC(=O)OCC)C(=O)NC2CCCCC21 (stereo unspecified),-14%
N#Cc1c(NC(=O)CSc2nc(N)cc(=O)[nH]2)sc2c1CCCCCC2,8%
Cc1ccc(NC(=O)CN(C)S(=O)(=O)c2cccc3cccnc23)cc1,-5%
CCOC(=O)C1C(=O)OC2(CCOC(C)(C)C2)C1C(=O)OCC (stereo unspecified),14%
Cc1ccc(C2CC(C(F)(F)F)n3nc(C(=O)NCc4c(C)nn(C)c4C)c(Cl)c3N2)cc1 (stereo unspecified),153%
CCCN1CCC(NC(=O)Nc2ccc(F)cc2F)CC1,-6%
Clc1ccc2c(c1)N(CCCN1CCCC13CCCCC3)c1ccccc1S2,-17%[5.75 µM]
Cc1cc2nc(-c3ccc(SCC(=O)N4CCOCC4)nc3)[nH]c2cc1C,69%
Cc1ccc(S(=O)(=O)N2CCN(S(=O)(=O)c3ccc(C)cc3)C3OCCOC32)cc1 (stereo unspecified),0%
Oc1c(CN2CCOCC2)cc(-c2ccccc2)cc1CN1CCOCC1,96%
CC(C)(C)n1ncc2c(=O)n(CC(=O)N3CCCCCC3)cnc21,6%
CC1CCCC(C)N1c1nnc(NC(=O)Cn2c(=O)oc3ccccc32)s1 (stereo unspecified),5%
CCc1nc(OCCN(CC)CC)c2oc3ccccc3c2n1,10%
NS(=O)(=O)c1ccc(CCNc2ncnc3sccc23)cc1,-18%
O=C(CNC(=O)c1cccs1)OCC(=O)c1cccs1,-11%
CCCc1cc(=O)[nH]c(SCC(=O)N(Cc2ccccc2)C(C)C)n1,16%
CCCCCCc1c(O)nc(SCC(=O)O)[nH]c1=O,0%
CCOC(=O)c1cnc2scnn2c1=O,-8%
CCCc1cc2c(=O)c(-c3ccccn3)c(C)oc2cc1O,4%
CCNc1nc(OC)nc(SCC(N)=O)n1,-8%
O=c1cc(N2CCN(c3ccc(F)cc3)CC2)[nH]c(=O)n1C1CCCCC1,-17%
CCOC(=O)Cc1cc(=O)n(-c2nc3ccccc3s2)[nH]1,-12%
Cn1c(=O)c2nc(-c3ccccc3)oc2c2ccccc21,116%
O=C(Nn1cnnc1)c1ccccc1CCc1ccccc1,4%
CCNc1ncc2nc(-c3ccc(Cl)cc3)c(=O)n(C[C@H]3CCCO3)c2n1,10%
C=CCn1c(-c2ccco2)n[nH]c1=S,-4%
COc1ccccc1-c1nc(NC2CC2)c2ccccc2n1,19%
CCCOc1nc2c(c(=O)n(C)c(=O)n2C)n1CCC,11%

Exported field by field: part of the list above.
CCCN1CCC(NC(=O)Nc2ccc(F)cc2F)CC1
  AmpC nodet inh: -6%
Clc1ccc2c(c1)N(CCCN1CCCC13CCCCC3)c1ccccc1S2
  AmpC nodet inh: -17%[5.75 µM]

Remaining list, next part.
structure,AmpC nodet inh
Cc1cccc2c1nc(-c1ccccc1)n1nnnc21,-2%
CC1(C(=O)NCCN2CCOCC2)C=CCN1C(=O)c1ccccc1 (stereo unspecified),2%
CCCC(=O)Nc1ccc2c(c1)nc1n2CCOC1,-10%
Cc1nn(-c2ccc(C(=O)O)cc2)c(=O)c2ccccc12,3%
CCOC(=O)Nc1nnc(CCc2ccccc2)s1,2%
O=C(CSc1nnc(C2COc3ccccc3O2)o1)NC1CCCCC1 (stereo unspecified),29%
COc1ccc(C)cc1NC(=O)c1nnn(CCc2ccccc2)c1N,4µM*[single pt active]
CS(=O)(=O)N1CCC2(CCCN(c3cccc(-c4ccccc4)c3)C2)CC1,49%
O=C(CN1C(=O)CCS(=O)(=O)c2ccccc21)Nc1ccc2c(c1)OCCO2,3%
Cc1cccc(-n2nnnc2SCC(=O)NCCN2C(=O)CSC2=O)c1,-6%
CCOc1ccc(CCNC(=O)CCc2nc(-c3ccc(C)cc3)no2)cc1OCC,74%
O=C(Nc1nc2c(s1)CCCC2=O)c1cnccn1,-7%
COc1ccc(-c2cc(C(F)(F)F)n3nc(C(=O)N4CCOCC4)c(Cl)c3n2)cc1,46%
COc1ccc(S(=O)(=O)CCC(=O)NC2CCCCC2)cc1,7%
O=C(Cn1cnc2c(nnn2Cc2ccccc2F)c1=O)OCc1ccccc1,-6%
Cc1ccc(N(CC(=O)N2CCn3c2nc2ccccc23)S(=O)(=O)c2c(C)n[nH]c2C)cc1,49%
CCC(=O)c1ccc(CCCCCC(=O)O)s1,2%
COCC(=O)N1CCC2(CC1)CN(C(=O)Nc1ccccc1)C2,17%
CC(Oc1ccc(Cl)cc1Cl)C(=O)Nc1ccc(N2CCN(C)CC2)cc1 (stereo unspecified),125%
O=C(NCc1ccco1)c1cc(-c2cccs2)on1,-19%
Cc1nn2c3c(cnc2c1-c1ccccc1)C(=O)CC(C)C3 (stereo unspecified),6%
O=C(COc1ccc(S(=O)(=O)Nc2ccccc2)cc1)N1CCOCC1,24%
O=C(NCc1ccccc1Br)c1ccco1,-9%
O=C(NCCCN1CCOCC1)C1CCC(=O)N1CCc1ccccc1 (stereo unspecified),6%
COc1ccccc1C(=O)C1Nc2ccccc2-c2nnc(SC)nc2O1 (stereo unspecified),12%
CN1CCN(CC#CC2(O)CCCCC2)CC1,-3%
CCCCCn1c(=O)[nH]c2cc(C(=O)NCCCN3CCC(C)CC3)ccc2c1=O,27%
O=[N+]([O-])c1cc(N(CCO)CCO)ccc1NCCO,-6%
O=C(Nc1ccc(CN2CCOCC2)cc1)c1cccs1,-16%
COC(=O)c1cc(C(O)(C(=O)OC)C(F)(F)F)c(/N=C/N(C)C)s1 (stereo unspecified),19%

A draw from above in order of number of heavy atoms, rising:
structure,AmpC nodet inh
Cc1nn2c3c(cnc2c1-c1ccccc1)C(=O)CC(C)C3 (stereo unspecified),6%
COCC(=O)N1CCC2(CC1)CN(C(=O)Nc1ccccc1)C2,17%
CS(=O)(=O)N1CCC2(CCCN(c3cccc(-c4ccccc4)c3)C2)CC1,49%
Cc1ccc(N(CC(=O)N2CCn3c2nc2ccccc23)S(=O)(=O)c2c(C)n[nH]c2C)cc1,49%

Following part:
structure,AmpC nodet inh
CCC(=O)Nc1nonc1-c1nc2ccccc2n1Cc1ccc(Cl)c(Cl)c1,-16%
CCOC(=O)N1CCN(c2c(NCCCN(C)c3ccccc3)c(=O)c2=O)CC1,4µM*[single pt active]
CC(Sc1nc(-c2ccccc2)cc(C(F)(F)F)n1)C(=O)N1CCCC1 (stereo unspecified),4µM*[single pt active]
N=c1n(CCOc2ccccc2)c2ccccc2n1CCN1CCOCC1,-6%
CCOc1ccc(NS(=O)(=O)c2cc(Cl)ccc2OC)cc1,5%
CC(=O)C1C(c2ccc3ncccc3c2)NC(=O)NC1(O)C(F)(F)F (stereo unspecified),-2%
COc1cccc(CNc2ccc3nc(-c4ccc(N)cc4)c(OC)n3n2)c1,58%
CCOC(=O)C1=C(C)NC2(O)c3ccccc3C(=O)C12O (stereo unspecified),-7%
CC(c1nnnn1C1CCCCC1)N(Cc1ccccc1)Cc1cccnc1 (stereo unspecified),115%
CCOC(=O)N1CCN(C(=O)c2ccc3c(=O)n(CCc4ccccc4)c(=O)[nH]c3c2)CC1,73%
CCOC(=O)c1cnc(-n2nc(C)cc2C)nc1N1CC(C)OC(C)C1 (stereo unspecified),38%
Clc1cc(Cl)c2nc(N3CCCCC3)sc2c1,-10%
Cc1cc(NC(=O)CCN2C(=O)C3C4C=CC(C4)C3C2=O)c2ccccc2n1 (stereo unspecified),-1%
Cc1ncc(COP(=O)(O)O)c(C)c1O,5%[5.75 µM]
Cc1ccc(-c2noc(CN(C(=O)c3cccs3)C(C)C)n2)cc1,32%
Cc1c(NC(=O)CC(=O)Nc2c(C)n(C)n(-c3ccccc3)c2=O)c(=O)n(-c2ccccc2)n1C,-1%
CCn1c(C(O)c2cccc(OC)c2OC)nc2ccccc21 (stereo unspecified),-4%
Cc1cccc(N2CCN(c3cc(C)nc4nnnn34)CC2C)c1 (stereo unspecified),4%
O=C(NC1(C(F)(F)F)Oc2ccccc2O1)N1CCC2(CC1)OCCO2,4%
O=C(NCCCn1ccnc1)c1cccc(S(=O)(=O)Nc2ccccc2F)c1,-11%
N#CCC(=O)Nc1ccccc1C(=O)O,-11%
Cc1ccccc1NC(=O)CCn1c(=O)oc2ccccc21,0%
Cc1ccc(S(=O)(=O)Oc2cc(N)c3c(n2)CCC3)cc1,-3%[5.75 µM]
CO[C@@H](NC(N)=O)C(=O)O,3%[5.75 µM]
Cc1ccc(C(=O)CCC(=O)Nc2cccnc2)cc1C,81%
O=C(Nc1ccc2c(c1)ncn2C1CCCCC1)c1ccco1,-5%
Cn1c(=O)c(-c2ccc(F)cc2)nc2cnc(OCc3ccccc3)nc21,1%
Cc1ccc(N2CC(C(=O)Nc3cccnc3)CC2=O)cc1 (stereo unspecified),8%
Cc1ccc(NC(=O)CN(c2cc(C)cc(C)c2)S(=O)(=O)c2c(C)noc2C)nc1,18%
CCCCCn1c(CCNC(=O)CCC)nc2ccccc21,65%

Looked up one by one from above (3):
structure,AmpC nodet inh
Cc1ncc(COP(=O)(O)O)c(C)c1O,5%[5.75 µM]
O=c1c(CCc2ccccc2)nc2cnc(N3CCNCC3)nc2n1CCc1ccccc1,79%
O=C(Cn1cnc2c(nnn2Cc2ccccc2F)c1=O)OCc1ccccc1,-6%

Remaining list, next part.
structure,AmpC nodet inh
c1ccc(-c2nc3ccccc3nc2N2CCOCC2)cc1,15%
CN1C(=O)CC(C(=O)O)SC1=Nc1cccc(C(F)(F)F)c1 (stereo unspecified),5%
COc1cccc(-c2nc(N(C)Cc3ccco3)c3ccccc3n2)c1,21%
COc1ccc(C(=O)N2CCC3(CC2)CCN(c2cccc(-c4ccccc4)c2)CC3)cc1,90%
Cc1cc(NC(=O)c2cc3n(n2)C(C(F)(F)F)CC(c2ccco2)N3)n(-c2ccccc2)n1 (stereo unspecified),27%
CCn1c(SCC(=O)N2CCCc3ccccc32)nnc1-c1cccs1,31%
CCOc1ccc(Br)cc1-c1noc(-c2cccs2)n1,-10%
CCOC(=O)c1cc(-c2ccc(C)o2)nn1CCC#N,4%
C#C[C@@]1(O)CC[C@@H]2[C@@H]3CCC4=CC(=O)CC[C@@H]4[C@H]3CC[C@]21C,10%[12.8 µM]
CCC1(CC)C(=O)C(C)(C)C(=O)OC1c1ccccn1 (stereo unspecified),12%
CN(C)CCCCCNCCCNC(=O)/C=N\O,-7%
CCN(CC)CCCCCCCCOC(=O)c1cc(OC)c(OC)c(OC)c1,43%
O=C(CN1CCN(c2ccccn2)CC1)N1c2ccccc2CCc2ccccc21,101%
Cc1cc2cc(CN(CC3CCCO3)C(=O)c3cnccn3)c(=O)[nH]c2cc1C (stereo unspecified),61%
CCOc1cc2c(cc1OCC)C(C(=O)O)C(c1ccc(OC)c(O)c1)N(C)C2=O (stereo unspecified),-11%
CCC(C(=O)Nc1nc(C)cs1)c1ccccc1 (stereo unspecified),-4%
CCCCOc1ccccc1C1NC(=O)NC(C)=C1C(=O)OCCOCC (stereo unspecified),21%
COC(=O)CC#N,2%
OC(COc1ccc2c(c1)CCC2)CN1CCN(c2ccccc2F)CC1 (stereo unspecified),29%
O=C(N[C@@H](Cc1ccccc1)C(=O)O)c1cccnc1,-1%
N#Cc1ccc(CN2CC[C@@]3(CCCN(S(=O)(=O)c4ccccc4)C3)C2)cc1,46%
COc1ccc(Nc2nc(OC)nc(N3CCN(c4ccc(OC)cc4)CC3)n2)cc1,-5%
COc1ccc(C2C(C(=O)N3CCC(C)CC3)c3ccccc3C(=O)N2C)cc1 (stereo unspecified),29%
COC(=O)c1ccc2c(c1)NC1=C(C(=O)CC(C)(C)C1)C(c1ccncc1)N2 (stereo unspecified),-3%
CN(Cc1ccco1)c1nc(-c2ccoc2)nc2ccccc12,33%
O=C(Nc1ccc2nc(C3CC3)n(Cc3ccc(F)cc3)c(=O)c2c1)c1ccco1,38%
Cc1cc(Cl)ccc1OCC(=O)N1CCN(C)CC1,20%
Cc1cc(-c2ccc(N=Nc3ccc4c(S(=O)(=O)O)cc(S(=O)(=O)O)c(N)c4c3O)c(C)c2)ccc1N=Nc1ccc2c(S(=O)(=O)O)cc(S(=O)(=O)O)c(N)c2c1O,?
COc1cc(OC)cc(-c2nnc(SCc3cccnc3)o2)c1,71%
Cc1cc(C)nc(NCC(O)COc2ccccc2C)n1 (stereo unspecified),37%
CSc1ccc(S(=O)(=O)N2CCN(Cc3ccc4c(c3)OCO4)CC2)cc1,-3%
CC(=O)N1CCC2(CCCN(c3ccccc3)C2)CC1,75%
CN(C)C(=O)c1ccc(-c2ccc3ncnc(N4CCNCC4)c3c2)cc1,9%
COC(=O)c1sc2nc(-c3ccco3)ccc2c1N,-10%
CCOc1ccccc1CN1C(=O)NC(C)(c2ccccc2)C1=O (stereo unspecified),-1%
CS(=O)(=O)N1CCC(C(=O)NCc2ccc(F)cc2Cl)CC1,-1%
O=C(Cn1nc(C(F)(F)F)c2c1CCC2)NC1CCCCC1,9%
CCOc1ccc(S(=O)(=O)Nc2cc(OC)ccc2OC)cc1,3%
O=C(O)[C@@H](O)[C@@H](O)[C@@H](O)[C@@H](O)c1nc2ccccc2s1,-3%[5.75 µM]
O=c1[nH]c(-c2ccc(Cl)cc2)nc2c1cnn2-c1ccccc1,0%

Compound activity from PubChem.

A portion of the library. The share of hits here may be higher or lower than overall.
